Yeast UUG start: modulators of yeast start codon fidelity, primary screen, whole organism, S. cerevisiae, single point, plate reader; activity score, % at 18.7 µM; S. cerevisiae UUG-firefly luciferase reporter, luminescence/redox ratio; hit rate 0.13% among 350,000;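 active means replicate mean at a twofold rise or more, about +100% in these data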;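 further: firefly luciferase made from a UUG start codon reports start codon fidelity; reporter light over untreated wells divided by growth signal over untreated wells; some hits fall short of that in this replicate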
PABP FP inh: PABP poly(A) RNA binding inhibitors, primary screen, biochemical, fluorescence polarization, uHTS; AID 2014, 2009; inhibition, % at 35 µM; hit rate 1% among 290,000;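 active means 50% or more with normal probe brightness, or confirmed in later tests; about a fifth of its hits are not listed in these tables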;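 further: calls also rest on retests at 20 µM and on dose response follow-up; controls were probe without protein and protein plus probe with vehicle; some compounds called inactive have numbers as strong as hits; many hits fall short of the cut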
Target sequence (P11940 whole entry, looked up): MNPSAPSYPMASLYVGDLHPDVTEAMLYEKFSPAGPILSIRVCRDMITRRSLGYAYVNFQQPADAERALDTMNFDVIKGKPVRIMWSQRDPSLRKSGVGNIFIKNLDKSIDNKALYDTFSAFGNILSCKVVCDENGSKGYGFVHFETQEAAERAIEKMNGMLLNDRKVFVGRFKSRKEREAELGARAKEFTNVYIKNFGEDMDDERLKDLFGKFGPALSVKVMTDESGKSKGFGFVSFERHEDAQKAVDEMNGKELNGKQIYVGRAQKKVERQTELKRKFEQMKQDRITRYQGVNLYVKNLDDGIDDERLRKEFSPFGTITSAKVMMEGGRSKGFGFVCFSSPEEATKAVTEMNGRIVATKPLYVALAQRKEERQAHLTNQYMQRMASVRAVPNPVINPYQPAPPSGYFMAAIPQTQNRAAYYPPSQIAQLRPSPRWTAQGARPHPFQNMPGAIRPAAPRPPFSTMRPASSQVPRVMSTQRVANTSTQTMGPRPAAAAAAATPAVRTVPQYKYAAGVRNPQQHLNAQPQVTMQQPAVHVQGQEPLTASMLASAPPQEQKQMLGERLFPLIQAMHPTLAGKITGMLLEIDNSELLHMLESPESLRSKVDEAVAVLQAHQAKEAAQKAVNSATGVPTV
MT1-MMP act inh: blockers of MT1-MMP proenzyme processing, primary screen, HT1080 RFP-PRO-GFP cells, GFP/RFP fluorescence; hit rate 0.061% among 360,000; Matrix metalloproteinase-14 (Homo sapiens), P50281; GFP/RFP ratio change, % at 20 µM; AID 651647, 2012; GFP/RFP ratio fluorescence, overnight; percent of plate control window, DMSO zero;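 active means GFP/RFP ratio change of at least 30% with cell ATP level not reduced by more than half and red fluorescence within 50% of control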; further: strong numbers were not always called active
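Assay system: HT1080 RFP-PRO-GFP cells. Benchmarks: DMSO vehicle wells and RFP-L50D-GFP reporter cell wells. Times: overnight cell settling, then overnight compound exposure, 37 °C, 5% CO2. Compound: 20 µM single dose, 1% DMSO. Read-out basis: GFP/RFP fluorescence ratio.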
CSC inhib: cancer stem cell viability inhibitors, primary screen, luminescence; AID 2717, 2010; inhibition, % at 7.5 µM; hit rate 1.1% among 300,000; cancer stem cell-like cells viability;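 active means mean at 75% or more and at least half the replicates too; tested in HMLE shEcad cells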;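 further: 0% = median of negative and 100% = median of positive control wells; the first replicate is given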
Rce1 inhib: yeast Rce1p protease inhibitors, primary screen, biochemical, fluorescence, cell-free homogeneous; yeast membranes, quenched prenylated peptide cleavage fluorescence; calls only; hit rate 0.27% among 290,000; AID 2563, 2010;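 active means fall in fluorescence gain of 50% or more versus controls, with final raw signal at or below 3038400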;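 further: plate controls were neutral control wells for no effect and wells lacking membranes for full effect; tested at 10 µM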
Target sequence (Q03530 whole entry, looked up): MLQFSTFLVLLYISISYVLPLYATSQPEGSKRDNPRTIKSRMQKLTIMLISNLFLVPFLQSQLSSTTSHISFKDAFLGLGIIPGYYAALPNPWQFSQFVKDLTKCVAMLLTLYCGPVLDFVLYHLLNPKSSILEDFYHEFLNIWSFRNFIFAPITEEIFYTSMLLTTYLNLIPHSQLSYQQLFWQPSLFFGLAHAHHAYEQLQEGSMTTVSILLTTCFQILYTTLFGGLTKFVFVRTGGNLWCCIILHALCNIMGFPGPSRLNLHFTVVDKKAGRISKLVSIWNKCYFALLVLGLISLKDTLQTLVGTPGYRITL
HIV Env fusion: inhibitors of HIV-1 Env-driven cell-cell fusion, primary screen, HeLa-JRFL effector, CEM21 target cells, luciferase. inhibition, % at 12.3 µM. hit rate 1.1% among 360,000;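 active means mean replicate inhibition score of at least 50 and every replicate individually at or above 50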;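 further: 0% = plate neutral controls and 100% = maraviroc near 300 nM; one replicate is shown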
eIF4H FP inh: human eIF4H binding inhibitors, primary screen, translation initiation inhibitor project, biochemical, uHTS, fluorescence polarization. hit rate 0.94% among 290,000. AID 2012, 2009. inhibition, % at 35 µM. eIF4H fluorescence polarization binding assay. Eukaryotic translation initiation factor 4H (Homo sapiens), Q15056;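 active means 50% or more with normal probe brightness, or confirmed in later tests; about a fifth of its hits are not listed in these tables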;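 further: calls also rest on retests at 20 µM and on dose response follow-up; 0% = protein and probe with vehicle and 100% = probe without protein; strong numbers were not always called active; many hits fall short of the cut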
eIF4H FP inh retest: further read-out of eIF4H FP inh, marked with its call; inhibition, %; compound at 20 µM; confirmation average;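 mean of two retest wells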
PABP FP inh retest: recorded beside PABP FP inh, whose call it bears; inhibition, %; compound at 20 µM; confirmation repeats;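 mean of two retest wells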
MT1-MMP act inh RFP: recorded beside MT1-MMP act inh, whose call it bears; RFP signal change, %; measured here: RFP expression control read;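 0 = vehicle wells; hits needed this value within 50% of zero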
The depositor's hits bear a star; i = inactive; / = no result given.

SMILES	Yeast UUG start	PABP FP inh	MT1-MMP act inh	MT1-MMP act inh RFP	CSC inhib	Rce1 inhib	HIV Env fusion	eIF4H FP inh	others
CC(C)c1ccc(N(CC(=O)NCc2ccc(F)cc2)C(=O)c2csnn2)cc1	/	-3.9	-6.2	-7.4	11.1	i	-14.9	-0.9
COc1ccc(Cl)cc1NC(=O)c1nnn(CC(=O)Nc2ccc3c(c2)OCO3)c1N	-8.8	3.4	-2.2	2.8	-13.7	i	-2.4	2.6
CCC(=O)Nc1ccccc1-c1nnn(CC(=O)N2c3ccccc3CC2C)n1 (stereo not given)	-14.7	-15.3	-0.7	1.0	8.0	i	14.3	-8.8
Cc1nc2ccc(S(=O)(=O)NCC(=O)N3CCOCC3)cc2s1	-4.4	1.8	2.3	4.4	-2.6	i	/	-16.8
CC(=O)NC1C(=O)Nc2c(C)cc(C)cc21 (stereo not given)	-18.0	10.7	1.5	0.1	3.5	i	/	3.1
Cc1nccn1CC(=O)c1ccccc1	-31.9	/	0.2	3.1	/	/	-11.6	/
CCOc1ccc(C(=O)NCCCN(CC)CC)cc1	-13.6	-6.5	7.8	4.2	-20.2	i	/	8.8
COc1ccccc1OCC(=O)Nc1ccccc1C(=O)N1CCCCC1	-0.5	-12.3	2.9	1.1	3.9	i	/	-6.6
CCOC(=O)COc1ccc(S(=O)(=O)N2CCN(c3ccccc3F)CC2)cc1	/	-9.9	4.7	4.2	1.1	i	/	4.3
O=C(NC1CC1)c1nc(Cn2cc([N+](=O)[O-])cn2)no1	10.6	24.2	-0.5	3.4	/	i	-1.9	-3.4
COC(=O)[C@H](C)NC(=O)NCc1ccc(S(N)(=O)=O)cc1	-16.8	-9.5	-3.3	3.2	-3.0	i	-5.0	-1.2
CC1=CC(=O)CC2C1(C)CCC(C)C2(C)CCC(C)CC(=O)O (stereo not given)	1.2	8.5	2.8	1.8	-4.5	i	/	7.3
N#Cc1ccc(OCC(=O)NCC(c2cccs2)N2CCOCC2)cc1 (stereo not given)	-20.5	8.3	-0.9	3.5	-5.3	i	-258.3	4.9
Cc1ccccc1C(=O)Oc1cc(N)n(S(=O)(=O)c2ccccc2)n1	/	-0.5	-1.4	-0.3	-10.9	i	-73.0	-11.3
CC(C(=O)N1CCCC1)N(c1ccccc1)S(C)(=O)=O (stereo not given)	-18.4	-1.2	0.5	1.2	-6.9	i	-3.6	-11.3
COc1cccc2cc(C(=O)CS(=O)(=O)c3ccc(C(C)(C)C)cc3)c(=O)oc12	-6.8	5.2	-1.3	3.1	1.3	i	0.1	8.5
CC(C)=CCC1=C(OCC(=O)O)C(=O)c2ccccc2C1=O	/	13.0	4.2	4.5	3.7	i	-9.7	11.8
O=c1[nH]n2cc(-n3cc([N+](=O)[O-])cn3)cnc2c1Br	/	40.3	-0.1	-1.5	-8.5	i	-1.7	-10.9
CCCCc1nc2cc(C(=O)N3CCC(OCCOC)CC3)ccc2o1	-19.0	-4.0	1.8	0.6	-2.6	i	-7.2	1.3
COc1ccccc1N1CCN(c2nc(N)c(C#N)c(CC#N)c2C#N)CC1	-4.4	50.8	-1.6	3.3	-8.1	i	/	44.3	eIF4H FP inh retest=29.3;PABP FP inh retest=26.4
CCOC(=O)CSc1nnc(NC(=O)c2ccc3c(c2)OCO3)s1	-24.4	2.0	-1.5	1.9	-1.3	i	23.9	2.0
COc1ccccc1NC(=S)N1CCN(c2ccc(F)cc2)CC1	-21.2	0.6	-1.0	0.0	-5.3	i	-4.0	-0.9
CCOC(=O)N1CCN(C(=O)COC(=O)c2cc(C)ccc2C)CC1	-11.0	/	3.7	-1.6	-18.1	/	29.4	/
COc1ccc(-c2nc3nc(SC)nn3cc2C)cc1F	/	0.1	1.4	-0.2	4.4	i	-9.7	-15.7
CN1/C(=C\C(=S)NC(=O)c2cccc(Br)c2)C(C)(C)c2ccccc21	-17.5	-0.8	58.5	67.9	9.9	i	35.9	59.4	eIF4H FP inh retest=-3.8;PABP FP inh retest=0.7
COc1ccc(N2CC(C(=O)Nc3ccncc3)CC2=O)cc1 (stereo not given)	-12.2	4.1	-0.3	-1.6	-22.8	i	1.9	-8.9
O=C(NCc1ccc2c(c1)OCO2)C1CC(c2cccc(Br)c2)=NO1 (stereo not given)	3.6	-2.0	8.7	5.0	-2.3	i	6.1	-8.2
COc1ccc(-c2cc3onc(-c4c(Cl)cccc4Cl)c3c(=O)n2C)cc1	-32.6	/	-0.1	-11.5	-4.0	/	-37.2	/
O=C(Nc1ccc(Cl)cc1[N+](=O)[O-])c1ccc2c(c1)OCCO2	-16.9	-12.0	0.1	1.9	-8.1	i	-331.2	0.5
O=C(CCS(=O)(=O)c1ccccc1)NC1CCCCC1	-24.9	-5.4	-2.0	1.5	-1.1	i	-12.8	-13.2
O=C(Nc1ccc(C(=O)N2CCOCC2)cc1)c1cccc(Br)c1	-9.6	-2.5	-0.7	-0.7	-2.4	/	-3.4	-1.0
COc1ccccc1NS(=O)(=O)c1cccc(C(=O)N/N=C/c2c(C)nn(-c3ccccc3)c2N2CCCC2)c1	/	-9.3	-5.3	-7.9	-3.3	i	/	8.4
CN1CCCN(C(=O)CNC(=O)c2ccc(Cl)cc2Cl)CC1	-9.7	/	-5.5	-2.8	7.3	/	-19.5	/
CCOC(=O)C1CCN(C(=O)CN2C(=O)c3cccnc3Oc3ccccc32)CC1	-8.1	-5.1	0.4	5.6	-11.2	i	5.2	-13.0
Cc1c(Cl)cccc1-c1ccc(/C=N/n2cnnc2)o1	-37.1	2.8	1.6	-0.3	-8.0	i	/	-1.6
O=C(NCCOc1ccccc1F)c1cc([N+](=O)[O-])ccc1N1CCOCC1	-15.3	9.8	-4.7	-13.2	50.7	i	63.2*	-6.2
CCc1ccc2oc(-c3ccc(OC)cc3)cc(=Nc3c(C)n(C)n(-c4ccccc4)c3=O)c2c1	/	-0.7	-1.3	-7.6	21.2	i	-147.5	-7.8
COc1ccc(CC(=O)NCC2CCCN(Cc3cccc(C(F)(F)F)c3)C2)cc1 (stereo not given)	-8.7	-6.0	1.1	2.0	-16.6	i	17.5	3.4
Cc1ccc(NC(=O)c2ccc3c(=O)n4c(nc3c2)CCC4)cc1S(=O)(=O)N(C)C	-12.4	/	4.8	0.3	/	/	11.8	/
CC(=O)Nc1cc(C(=O)N2CCN(C)CC2)ccc1Sc1ccc(C)cc1	-24.3	-18.7	0.3	2.9	-7.3	/	-47.2	0.8
Cc1nc(C(F)(F)F)ccc1C(=O)N1CCC1(C)C(=O)NS(=O)(=O)c1ccc(Cl)cc1 (stereo not given)	2.3	/	-1.3	-1.2	/	/	-16.5	/
Cc1ccc(S(=O)(=O)N2c3ccccc3-c3c(ssc3=S)C2(C)C)cc1	-32.1	-8.4	-4.6	-10.9	-4.5	i	50.2	0.2
CC1CCN(C2(O)C(=O)Nc3ccc(Br)cc32)CC1 (stereo not given)	0.9	14.1	0.6	-0.9	-4.0	i	-4.6	0.7
Cc1cc(NC(=O)c2ccccc2)ncc1NC(=O)c1ccco1	-29.2	-7.3	-2.8	-3.5	37.4	i	-131.2	4.2
CSc1nnc(-c2sc3cc(C(F)(F)F)cnc3c2-c2cccnc2)n1C	/	-5.5	5.6	7.3	-12.1	i	/	-5.9
CCCCN(CC)C(=O)Cn1nc(Cc2ccncc2)c2ccccc2c1=O	-8.3	-4.2	1.3	-0.7	-9.4	i	1.2	-12.6
Cc1ccc(S(=O)(=O)n2ccc(-c3ccc(OCc4c(F)cccc4Cl)cc3)n2)cc1	-14.2	-16.1	-3.2	-4.9	6.2	i	-29.2	3.6
CCOc1ccc(N(CC(=O)NCc2ccc(F)cc2)C(=O)c2ccco2)cc1	0.2	7.3	2.1	-0.7	/	i	7.5	1.6
Cc1nc2cc(Nc3nnc(-c4ccccc4)c4ccccc34)ccc2n1C	/	1.9	2.8	-0.7	-7.0	i	/	14.9
Cc1ccc(-c2noc(/C=C/c3ccccc3)n2)cc1	-16.0	-0.8	7.1	2.2	-6.0	i	-90.6	7.2
The results go on:
SMILES	Yeast UUG start	PABP FP inh	MT1-MMP act inh	MT1-MMP act inh RFP	CSC inhib	Rce1 inhib	HIV Env fusion	eIF4H FP inh	others
NC(=O)c1ccc(NC(=O)CN2CCN(S(=O)(=O)c3ccc4c(c3)OCCO4)CC2)cc1	-3.8	/	-0.8	-0.5	15.5	/	-13.1	/
CCC1Oc2ccccc2N(CC(=O)NC2CCCCC2C)C1=O (stereo not given)	-0.3	1.9	-12.8	-3.6	10.3	i	13.8	-12.4
Cn1c(=O)c2c(nc(Oc3ccc4c(c3)OCO4)n2Cc2ccc(Br)cc2)n(C)c1=O	/	9.7	/	/	2.2	i	/	4.9
CCOC(=O)c1ccc(NC(=O)C23CCC(C)(C(=O)O2)C3(C)C)cc1 (stereo not given)	-15.1	13.0	-9.1	-1.6	-10.1	i	5.9	0.4
COc1ccc(C(=O)c2c3ccc(C(F)(F)F)cc3[n+]([O-])n2CCCC(N)=O)cc1	5.9	/	4.5	3.0	-6.3	i	-9.8	/
CCOc1ccc2[nH]c(=O)c(C(c3nnnn3CC3CCCO3)N3CCc4ccccc4C3)cc2c1 (stereo not given)	-15.2	4.8	-8.8	-0.7	-1.2	/	42.6	12.2
CCOc1ccc(-c2nc(-c3ccccc3C)no2)cc1	/	-8.5	/	/	8.2	i	/	-3.2
C=CCSc1nc2c(c(C3CC=CCC3)c1C#N)CCC2 (stereo not given)	-24.3	31.3	2.9	-2.2	-3.8	i	12.1	-2.6
CCCCn1c(/N=C/c2ccc3c(c2)OCO3)nc2ccccc21	-20.5	-1.4	-2.0	-2.8	-0.6	i	/	1.7
c1ccc(-c2nnc3sc(CN4CCc5ccccc54)cn23)cc1	-18.5	31.4	-2.9	-7.6	75.6*	i	/	12.6
O=C(COc1cccc(C(F)(F)F)c1)NCCCN1CCCC1=O	4.0	12.4	-9.2	1.5	-24.4	i	-17.3	4.4
COc1ccc(C(=O)Nc2ccccc2)cc1NC(=O)c1cccs1	0.9	-4.9	2.9	0.7	-2.7	i	-22.4	-14.7
Cc1cc(Br)cc(C)c1OCC(=O)NNC(=O)c1cccs1	-6.8	4.0	1.5	-3.2	-10.8	i	2.6	-15.7
O=C(NCC1COc2ccccc2O1)c1ccc(F)c(S(=O)(=O)N2CCOCC2)c1 (stereo not given)	-2.7	/	2.8	-0.7	/	/	4.0	/

Among those listed so far, these contain a nitro group on carbon:
SMILES	Yeast UUG start	PABP FP inh	MT1-MMP act inh	MT1-MMP act inh RFP	CSC inhib	Rce1 inhib	HIV Env fusion	eIF4H FP inh	others
O=C(NC1CC1)c1nc(Cn2cc([N+](=O)[O-])cn2)no1	10.6	24.2	-0.5	3.4	/	i	-1.9	-3.4
O=c1[nH]n2cc(-n3cc([N+](=O)[O-])cn3)cnc2c1Br	/	40.3	-0.1	-1.5	-8.5	i	-1.7	-10.9
O=C(Nc1ccc(Cl)cc1[N+](=O)[O-])c1ccc2c(c1)OCCO2	-16.9	-12.0	0.1	1.9	-8.1	i	-331.2	0.5
O=C(NCCOc1ccccc1F)c1cc([N+](=O)[O-])ccc1N1CCOCC1	-15.3	9.8	-4.7	-13.2	50.7	i	63.2*	-6.2

Screening results from PubChem.
